HSV replic up: HSV replication enhancement; 220,000 compounds, 0.005% hits; maximum fold increase; HSV replication augmentation in cells, fold increase;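 active = peak rise of 1.5-fold or more in the series; tested in PC3 cells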;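 note: first round at 10 µM; read as green reporter fluorescence; hits show the peak of a series up to 25 µM; 1 = signal of infected wells without compound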
GALR2 ag: GALR2 (human) receptor agonism; O43603; GALR2-expressing cells, agonist activation read-out; activation, %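 (tested at 5 µM)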; 140,000 compounds, 0.48% hits; AID 803;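 active = above mean plus 3 SD of all compounds, about 5% in these data, not always enough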;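 note: 0% = vehicle buffer wells and 100% = reference agonist at full effect; tested in CHO reporter cells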
Target sequence (O43603 whole entry, looked up): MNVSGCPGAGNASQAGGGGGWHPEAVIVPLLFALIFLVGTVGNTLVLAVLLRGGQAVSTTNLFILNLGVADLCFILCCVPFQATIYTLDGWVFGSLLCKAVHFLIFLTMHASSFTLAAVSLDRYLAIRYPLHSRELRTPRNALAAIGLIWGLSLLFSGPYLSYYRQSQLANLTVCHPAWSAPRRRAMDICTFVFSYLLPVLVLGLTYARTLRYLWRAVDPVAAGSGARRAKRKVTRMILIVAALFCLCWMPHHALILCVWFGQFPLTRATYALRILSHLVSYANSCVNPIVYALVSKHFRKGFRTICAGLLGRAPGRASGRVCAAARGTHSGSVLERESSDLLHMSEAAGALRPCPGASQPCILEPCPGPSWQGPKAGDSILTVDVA
PKD1 kinase inh: PKD1 (human) kinase inhibition; 200,000 compounds, 0.056% hits; PKD1 kinase fluorescence polarization assay; AID 797; Q15139; inhibition, %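 (about 10 µM by stock and volumes)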;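 active = inhibition of 50% or more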;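 note: controls were vehicle for no effect and a reference inhibitor for full effect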
RGS16-Gao: RGS16-Galphao interaction regulator (human); binding response (% of control), % at 10 µM; O15492+P09471; bead-based flow cytometry RGS16-Galphao binding, fluorescence; actives lie on both sides; 220,000 compounds, 0.38% hits;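 active = below 25% or above 175%, edge rows of some plates excepted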;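 note: Galphao activated by GDP with aluminum fluoride before binding; 100% = wells without compound and 0% = beads without RGS; some results beyond the cut were filed as inactive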
Target sequence (O15492 whole entry, looked up): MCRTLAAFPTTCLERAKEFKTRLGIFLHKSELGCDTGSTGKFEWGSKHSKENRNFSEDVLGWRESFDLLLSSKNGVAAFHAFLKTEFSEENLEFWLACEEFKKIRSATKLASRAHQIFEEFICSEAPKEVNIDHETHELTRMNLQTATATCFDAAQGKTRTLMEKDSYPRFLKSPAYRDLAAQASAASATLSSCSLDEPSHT
Target sequence (P09471 whole entry, looked up): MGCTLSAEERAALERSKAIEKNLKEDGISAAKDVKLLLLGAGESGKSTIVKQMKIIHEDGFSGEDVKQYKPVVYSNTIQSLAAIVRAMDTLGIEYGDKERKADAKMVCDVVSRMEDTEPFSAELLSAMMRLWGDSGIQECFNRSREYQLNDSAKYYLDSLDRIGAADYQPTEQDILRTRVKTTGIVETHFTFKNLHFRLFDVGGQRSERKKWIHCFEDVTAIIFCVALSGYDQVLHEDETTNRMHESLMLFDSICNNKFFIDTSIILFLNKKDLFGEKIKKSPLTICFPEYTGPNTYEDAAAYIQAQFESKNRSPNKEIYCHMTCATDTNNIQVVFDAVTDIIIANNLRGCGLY
INS promoter inh: TRM-6 insulin promoter activity inhibition. TRM-6 cells (human fetal islet line), insulin promoter-eGFP reporter, imaging; reporter expression induced with tamoxifen. inhibition, % at 2 µM. 130,000 compounds, 0.9% hits;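 active = inhibition above the mean plus 3 SD, with well images judged a real hit on visual review, cut at about 60% in these data, passing the limit was not always enough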
INS promoter inh cell count: further read-out of INS promoter inh, marked with its call; normalized cell count, %; measured here: cell count, toxicity; reference of the scale not given here;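 cells exposed to compound for 48 h; stained nuclei by imaging scaled within each plate; lower means fewer cells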
HSV replic up primary fold: also measured in HSV replic up; calls as there; fold increase; compound at 10 µM; measured here: primary screen fold increase 10 uM; tested in PC3 cells;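 GFP signal in the first replicate; 1 = infected wells without compound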
An asterisk follows results filed as active; i = inactive; x = not tested or not shown.

SMILES	HSV replic up	HSV replic up primary fold	GALR2 ag	PKD1 kinase inh	RGS16-Gao	INS promoter inh	INS promoter inh cell count
Cc1ccc(C(=O)Nc2nnc(SCC(=O)N3CCCc4ccccc43)s2)cc1	i	1.2	-0.1	-11	105	x	x
COc1ccc(/C=N/NC(=O)C(C)n2cnc3ccccc3c2=O)cc1OC (stereo unspecified)	i	0.85	0.8	-6	79	13	58
O=C(c1cc([N+](=O)[O-])ccc1Cl)N1CCN(c2ccc(F)cc2)CC1	i	1.1	0.9	-4	97	x	x
O=C(CSc1nnc(Cc2cc(=O)[nH]c(=O)[nH]2)n1-c1ccc(F)cc1)NC1CCCC1	i	1.2	-3.8	-4	103	x	x
CC(=O)NC1=NN(C(C)=O)C2(S1)C(=O)N(C(C)=O)c1ccc(C)cc12 (stereo unspecified)	i	0.99	x	-5	98	25	94
FC(F)Oc1ccc(NC(=S)NCc2ccccc2)cc1	i	0.97	-2.4	-3	85	16	81
O=S(=O)(Cc1ccc(Cl)cc1)NCC1CCCO1 (stereo unspecified)	i	1	1.0	-5	99	34	92
Cc1ccc(C)c(NC(=S)NC(NC(=O)/C=C/c2ccccc2)C(Cl)(Cl)Cl)c1 (stereo unspecified)	i	0.95	-2.0	7	98	x	x
CN1CCOCCOCCN(C)C(=O)N2CCOCCOCCN(CCOCC2)C1=O	i	0.86	-0.8	2	101	-47	46
COc1cc(/C=N/O)ccc1OCc1ccc(Cl)cc1	i	0.91	x	-1	92	x	x
COc1ccc(Cl)cc1C(=O)NNC1CC(=O)N(Cc2ccc(Cl)cc2)C1=O (stereo unspecified)	i	1	0.5	-10	106	-34	118
COc1cccc(/C=N/n2c(-c3n[nH]c4c3CCC4)n[nH]c2=S)c1O	i	1.2	0.4	-8	17	x	x
COc1ccc(/C=N/n2c(C)nnc2C)c(OC)c1OC	i	1	-1.5	-10	104	x	x
O=C(CN1C(=O)C2C3C=CC(C4CC34)C2C1=O)Nc1cccc2ncccc12 (stereo unspecified)	i	0.82	x	5	103	x	x
CCN1CCN(C(=O)CN(c2cc(OC)ccc2OC)S(C)(=O)=O)CC1	i	1	-1.6	1	111	-17	156
CCC(=O)c1ccc(OCC(=O)N(C)CC(=O)Nc2cccc(F)c2)cc1	i	0.87	x	-3	103	43	133
C/C(=N/NC(=O)CNC(=O)c1cccnc1)c1cccc([N+](=O)[O-])c1	i	0.96	x	-4	100	-15	126
COc1ccc(C2CC(c3ccc(OC)cc3)n3nc(NS(C)(=O)=O)nc3N2)cc1 (stereo unspecified)	i	1.1	x	x	113	x	x
CCc1ccc(OCC(=O)NNC(=O)Cc2cccs2)cc1	i	0.96	-2.1	12	100	-109	116
O=C(O)c1cccc(NC(=O)c2cn(-c3ccccc3)nc2-c2cc3ccccc3o2)c1	i	0.96	1.2	-5	104	x	x
CCN(CC)c1ccc2cc(-c3nnc(-c4ccc(Br)cc4)o3)c(=O)oc2c1	x	x	-0.3	-11	x	-40	133
Clc1ccc(CO/N=C/c2c(-c3ccccc3)nc3n2CCS3)c(Cl)c1	i	0.84	-2.2	-17	74	-68	118
CCO/N=C(/c1nonc1N)N1CCN(c2ccc([N+](=O)[O-])cc2)CC1	i	0.87	-1.3	1	104	41	37
Cn1c(=O)c2c(ncn2Cc2ccc(Cl)c(Cl)c2)n(C)c1=O	i	1	-3.7	4	104	54	148
COC(=O)Cc1ccc(NC(=S)NCc2ccccc2Cl)cc1	i	1.1	-1.7	6	108	x	x
SMILES	HSV replic up	HSV replic up primary fold	GALR2 ag	PKD1 kinase inh	RGS16-Gao	INS promoter inh	INS promoter inh cell count
O=C(CSc1n[nH]c(=O)[nH]c1=O)N/N=C/c1ccccc1O	i	0.95	0.3	-8	91	11	152
CC(=NC1CC1)c1c(-c2ccccc2)[nH]n(-c2nc3ccccc3s2)c1=O	i	0.79	-4.6	6	104	39	99
O=C(O)CCNc1ccc(Cl)cc1	i	1	x	x	95	x	x
CCCn1c(SCC(=O)c2cc(OC)ccc2OC)nc2c1c(=O)n(C)c(=O)n2C	x	x	-1.8	-3	x	40	101
Cn1c(Cc2ccc3c(c2)OCO3)nnc1SCC(=O)N1CCc2ccccc2C1	i	0.94	0.2	3	104	-33	56
N#Cc1c(NC(=O)Cn2c(=O)oc3ccccc32)oc(-c2ccccc2)c1-c1ccccc1	i	0.9	-1.8	-11	102	16	81
O=C(NCCSCc1ccco1)c1ccc(CN2CCOCC2)cc1	i	1	-1.8	-1	93	24	53
Cc1ccc(-c2nnc(SCc3nc4ccccc4[nH]3)n2Cc2ccco2)cc1	x	x	-1.9	1	101	53	48
O=C(NCc1ccc(F)cc1)c1ccc(CS(=O)(=O)Cc2ccccc2F)o1	i	1	-0.7	2	100	15	71
O=C(NC(Cc1ccccc1)C(=O)OCC(=O)N1CCc2ccccc21)c1ccco1 (stereo unspecified)	i	1	-2.5	7	101	x	x
Cc1cc(C2C(C#N)=C(N)OC3=C2C(=O)CCC3)c(C)s1 (stereo unspecified)	i	0.97	-0.3	-6	123	-43	153
COc1ccc(-c2nnn(CC(=O)c3ccc4c(c3)OCCO4)n2)cc1OC	i	0.93	-1.8	-1	x	-7	76
COc1ccc(-c2cc(=O)oc3cc(OCC(=O)c4cccc([N+](=O)[O-])c4)ccc23)cc1	i	1.1	-0.5	7	146	11	78
O=C(N/N=C/c1cn(-c2ccccc2)nc1-c1cc2ccccc2o1)c1ccccc1Br	i	0.92	-2.5	3	105	3	130
O=C(Nc1ccc(S(=O)(=O)NC2=NCCCCC2)cc1)c1ccc(C(F)(F)F)cc1	i	1	x	x	105	x	x
O=C(O)c1ccc2c3c(cccc13)C(=O)N(OS(=O)(=O)c1ccccc1)C2=O	i	1	x	-6	104	x	x
Cc1sc2nc(CSCC(=O)Nc3c(Cl)cccc3Cl)[nH]c(=O)c2c1C	i	1	-0.3	-2	103	-16	54
COc1ccc(-c2nnc(N(C)C(=O)C3CCOC3)s2)cc1 (stereo unspecified)	i	0.89	-0.8	-13	109	-310	52
Cc1c(Cl)cccc1NC(=O)CSc1nnc(CCNC(=O)OC(C)(C)C)o1	i	0.85	-1.8	-5	105	-6	104
CC(=O)NC(O)C(=O)c1ccccc1 (stereo unspecified)	i	0.93	-0.4	4	103	61	87
CC1CCN(C(=O)C2CCN(CC(C)c3ccccc3)CC2)CC1 (stereo unspecified)	i	1	-0.2	-4	139	-368	40
CSc1nnc(-c2ccc(F)cc2)o1	i	0.8	-2.5	4	100	39	80
CC(C)(C#N)Nc1ccccc1	i	1.1	-1.3	0	100	-21	97
CCn1nc(C)c(CN2CCN(Cc3cccc(OC)c3)C(CCO)C2)c1C (stereo unspecified)	i	0.95	x	-4	106	x	x
CC1(C)C(=O)OC(/C=C\c2cccc([N+](=O)[O-])c2)C(C)(C)C1=O (stereo unspecified)	i	0.96	x	-1	102	x	x

Look-ups from above.
Value for CC(=NC1CC1)c1c(-c2ccccc2)[nH]n(-c2nc3ccccc3s2)c1=O in INS promoter inh: 39
Value for Cc1cc(C2C(C#N)=C(N)OC3=C2C(=O)CCC3)c(C)s1 (stereo unspecified) in INS promoter inh: -43

(further entries)
SMILES	HSV replic up	HSV replic up primary fold	GALR2 ag	PKD1 kinase inh	RGS16-Gao	INS promoter inh	INS promoter inh cell count
COC(=O)c1ccc(OCCOc2ccc(C(=O)OC)cc2)cc1	i	0.97	-1.3	-8	106	-21	103
CC(=O)OCCCN1C(=O)c2ccc(Br)cc2C1=O	i	1.1	-0.6	-7	95	x	x
CCOc1ccccc1NC(=O)CSc1nnc(CNC(=O)c2ccco2)o1	i	1.2	-0.9	-4	103	29	91
CN(C(=O)CSc1nc(-c2ccc(F)cc2)cs1)C1CCS(=O)(=O)C1 (stereo unspecified)	i	1.1	-1.4	-1	86	x	x
CCOC(=O)C1=C(c2ccccc2)N=c2s/c(=C\c3ccco3)c(=O)n2C1c1cccs1 (stereo unspecified)	x	x	-1.2	-6	95	x	x
Cc1cc(SCC(=O)OCC(=O)NCc2ccc3c(c2)OCO3)c(C)cc1Br	i	0.98	-0.3	-10	102	47	81
COc1ccc(OC)c(CN2CCN(C(=O)c3cccc4ccccc34)CC2)c1	i	0.89	-4.0	-11	89	12	97
O=C1c2cccc3c([N+](=O)[O-])ccc(c23)C(=O)N1Cc1cccnc1	x	x	x	0	95	i	16
CN(CC(=O)N1CCc2ccccc21)S(=O)(=O)c1ccc(Cl)cc1	i	1	-4.4	-1	102	59	137
CCOc1ccc(NC(N)=O)cc1OCC	i	1	-2.4	-5	97	21	135
CCOC(=O)c1nonc1NC(C)=O	i	0.9	-0.8	-7	100	10	78
Cc1cc(C)n2nc(SCC(N)=O)nc2n1	i	1	x	4	100	24	175
Cc1[nH]n(-c2nc(-c3ccc(Cl)cc3)cs2)c(=O)c1N=Nc1ccc(O)cc1	i	0.65	x	-2	98	x	x
O=C(OCCN1CCN(c2ncc(C(F)(F)F)cc2Cl)CC1)c1ccc(Cl)cc1	i	1	-1.5	11	98	9	76
CN1C[C@@H]2C(c3ccc(Cl)nc3)C3(c4ccc(C#N)cc4)CC2(C3)[C@H]1c1ccccc1 (stereo partly specified)	i	0.86	x	x	96	x	x
O=C(CCc1ccccc1)Nc1ccncc1	i	1.3	-1.7	-2	105	-58	216
CCc1cccc(OCC(=O)Nc2ccc(S(=O)(=O)Nc3ccccn3)cc2)c1	i	0.92	x	-12	109	x	x
CCOc1ccccc1-c1nn2c(Cc3ccccc3)nnc2s1	i	0.83	-0.9	-2	98	x	x
COc1cc2c(cc1OC)C(C(=O)Nc1ccccn1)C(c1cccnc1)N(C)C2=O (stereo unspecified)	i	0.99	-1.1	2	101	-20	90
CCOC(=O)C(=O)Nc1ccc(Oc2ccccc2)cc1	i	0.96	x	-4	102	-27	157
O=C(Nc1ccc(Br)cc1Cl)NC1CC1	i	1.2	x	2	105	x	x
O=c1c(-c2ccc(Cl)cc2)[n+]([O-])c2ccccc2n1OCc1nc2ccccc2[nH]1	i	0.97	x	x	108	x	x
O=C(CCSCc1ccccc1Cl)NC1CCCCC1	i	0.92	x	1	104	-33	41
COC(CNS(=O)(=O)c1cccc2nonc12)OC	i	1	x	6	102	x	x
O=[N+]([O-])c1ccc(Cl)c2cccnc12	i	0.95	x	3	101	6	86

Record cards (already shown). Order of screens: HSV replic up | HSV replic up primary fold | GALR2 ag | PKD1 kinase inh | RGS16-Gao | INS promoter inh | INS promoter inh cell count
O=C1c2cccc3c([N+](=O)[O-])ccc(c23)C(=O)N1Cc1cccnc1 is listed as x | x | x | 0 | 95 | i | 16
CCOC(=O)c1nonc1NC(C)=O is listed as i | 0.9 | -0.8 | -7 | 100 | 10 | 78
CC(=O)OCCCN1C(=O)c2ccc(Br)cc2C1=O is listed as i | 1.1 | -0.6 | -7 | 95 | x | x
Cc1[nH]n(-c2nc(-c3ccc(Cl)cc3)cs2)c(=O)c1N=Nc1ccc(O)cc1 is listed as i | 0.65 | x | -2 | 98 | x | x
Cc1cc(SCC(=O)OCC(=O)NCc2ccc3c(c2)OCO3)c(C)cc1Br is listed as i | 0.98 | -0.3 | -10 | 102 | 47 | 81

Other compounds:
SMILES	HSV replic up	HSV replic up primary fold	GALR2 ag	PKD1 kinase inh	RGS16-Gao	INS promoter inh	INS promoter inh cell count
Cc1cccc(NS(=O)(=O)c2cccc3cccnc23)n1	i	0.97	-1.6	-3	110	x	x
CC(C)Cc1nc2n[nH]c(N)c2c2c1COC(C)(C)C2	i	0.97	1.1	-2	99	-31	99
CC(=O)Nc1nnc(-c2c(-c3c(Cl)cccc3Cl)noc2C)o1	i	0.88	x	x	99	x	x
CN1CCN(C(=O)c2cn(-c3ccccc3)nc2-c2cccnc2)CC1	i	0.92	-2.2	-8	151	-10	121
COc1ccc(CCNC2CC(=O)N(CCc3ccc(OC)c(OC)c3)C2=O)cc1 (stereo unspecified)	i	0.95	-0.9	0	96	-19	64
CC(C)NC(=O)Cn1c(SCC(=O)N2CCCCCC2)nc2ccccc21	i	1.2	-1.9	8	104	11	79
CCSc1nnc(NC(=O)C2(C)Cc3ccccc3C(=O)O2)s1 (stereo unspecified)	i	0.97	-0.1	8	89	-3	109
Cc1ccc(N/N=C(\C#N)C(N)=S)c(C)c1	i	1.1	-1.9	-21	75	-6	75
Cc1ccc2cc(S(=O)(=O)NCCCC(=O)O)ccc2c1	i	0.97	-0.6	1	103	18	90
O=C(COC(=O)C12CC3CC(CC(O)(C3)C1)C2)NC12CC3CC(CC(C3)C1)C2	i	1	x	-8	106	x	x
CCOC(=O)c1sc2nc(CSc3nc4ccccc4n3CC)[nH]c(=O)c2c1C	i	1	-1.6	-6	99	x	x
CC(C)CCn1c(O)c(N=Nc2ccccn2)c2ccccc21	i	1.1	1.6	-8	115	3	114
COCC(=O)N(C)C1(c2nnnn2CCOC(=O)Nc2cccc3ccccc23)CCCC1	i	1	-2.2	-7	66	14	122
